Compound activity from PubChem.
Calb biofilm kill: mixture kills Candida albicans biofilm cells. C. albicans biofilm persisters + clotrimazole, fluorescence viability; primary screen in compound mixtures of four per well. inhibition, % at 7.6 µM. hit rate 0.02% among 120,000. AID 1242;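 active = inhibition above 30.3% in the primary screen of four-compound pools, then above 30% when the compound was retested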;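 note: compounds exposed to preformed 24 h biofilms for 48 h; the number belongs to the whole pool; some results filed as inactive read as strong as hits; inactives centre near 12; 0% = biofilm with clotrimazole alone and 100% = kill control; retested singly at about 60 µM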
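Test system: C. albicans biofilms. Buffer or medium: RPMI/MOPS medium, pH 7.0. Timing: 48 h compound exposure at 37 °C. Technique: Alamar Blue fluorescence. Evaluation: percent inhibition of biofilm viability.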
The depositor's hits bear a star. Only part of the results is shown; rates above refer to the full screens.

SMILES,Calb biofilm kill
O=C(/C=C/c1ccccc1)/C=C/c1ccccc1,6.8
Cc1[nH]c2ccccc2c1/C=N/NC(=O)CNC(=O)c1cccs1,16.6
CCCC(=O)NC(=S)Nc1ccc(N2CCOCC2)c(Cl)c1,3.8
CCOc1cccc(OCCOCCOc2ccccc2C(C)=O)c1,13.0
CC(C)(C)C(=O)N1CCC[C@H]1C(O)(c1ccccc1)c1ccccc1,13.5
C[C@@H](C(=O)NCC1CC1)[C@@H]1C[C@@]1(C)[C@@H](NC(=O)OCc1ccccc1)c1ccccc1,14.4
COc1cccc(-c2nc(Oc3cc(C)cc(C)c3)c3ccccc3n2)c1O,20.0
O=C(O)C1=C[C@@H](c2ccc(C(F)(F)F)cc2)C[C@@H](OCc2ccc(CO)cc2)O1,19.8
Cc1ccc(S(=O)(=O)N(C)C)cc1NC(=O)c1ccc(OC(F)(F)F)cc1,24.5
COC(=O)c1n[nH]n(-c2ccc(F)c(Cl)c2)c1=O,11.7
CC(C)(C)c1cc(NC(=O)CSc2nncs2)n(-c2ccccc2)n1,2.8
O=C(COc1ccc(Br)cc1)N1CCN(c2ccc([N+](=O)[O-])c(N3CCCCC3)c2)CC1,16.6
CN(Cc1ccon1)Cc1cn(C)nc1-c1ccc(Oc2ccccc2)cc1,22.0
CCOC(=O)N1CCc2c(sc3c2c(=O)n(Cc2ccccc2)c(=O)n3CC(=O)NCCOC)C1,16.6
CCC(CO)NS(=O)(=O)c1cc(-c2nn(C)c(=O)c3ccccc23)ccc1C (configuration not stated),13.3
Nc1ccc(Cc2ccccn2)cc1,15.0
C/C(=N/NC(=O)CCC(=O)Nc1cccc(Cl)c1)c1ccc(C)cc1,18.8
CC1=Nc2ccc(Br)cc2C(c2ccccc2)N1CC(=O)O (configuration not stated),-4.7
Cc1nc(Sc2ccccc2)c(C#N)c(C)c1[N+](=O)[O-],10.1
CC(=O)Oc1ccc(N2C(=O)C3C(C2=O)C(C(=O)c2ccc(Cl)cc2)N2CCCC32)cc1 (configuration not stated),23.7
O=C(Cc1cccs1)Nc1cccc(-c2nnc(-c3ccco3)o2)c1,9.8
Cc1c(Cl)c([N+](=O)[O-])nn1CCCC(=O)Nc1sc2c(c1C(N)=O)CCC(C)C2 (configuration not stated),13.0
COc1ccc(-n2cc(C(=O)O)c(=O)cc2C)cc1,8.0
C/C(=N/O)c1ccccn1,18.3
Cc1c(-c2ccccc2)nc(-c2ccccc2)[nH]c1=O,1.3

An excerpt of these results, field by field.
molecule: C[C@@H](C(=O)NCC1CC1)[C@@H]1C[C@@]1(C)[C@@H](NC(=O)OCc1ccccc1)c1ccccc1
  Calb biofilm kill: 14.4

molecule: CC(C)(C)C(=O)N1CCC[C@H]1C(O)(c1ccccc1)c1ccccc1
  Calb biofilm kill: 13.5

molecule: O=C(Cc1cccs1)Nc1cccc(-c2nnc(-c3ccco3)o2)c1
  Calb biofilm kill: 9.8

(more compounds)
SMILES,Calb biofilm kill
COCN(C#N)c1nc(N(C)C)nc(N(C)C)n1,1.9
CCOc1cccc2cc(-c3csc(NC(=O)CCC(=O)NCCCN4CCC(C)CC4)n3)c(=O)oc12,8.4
COC(=O)CNc1nc(Cl)nc(Nc2ccc(C)cc2)n1,15.1
CC(CCc1ccccc1)NC(=O)/C=C/c1ccc(F)cc1 (configuration not stated),7.9
COc1ccc(-n2cc(CN(C)C3CCOCC3)c(-c3cccc(F)c3)n2)cc1,13.3
CCOC(=O)c1[nH]cnc1C(=O)Nc1ccccc1C,16.2
FC(F)(F)c1ccc(C2[C@H]3CN(Cc4ccc(-c5ccccc5)cc4)[C@H](c4ccccc4)C34CC2(c2cccnc2)C4)cc1 (some centres not stated),13.8
CCn1nc(C)c([N+](=O)[O-])c1C(=O)NNC(=O)c1ccc(Cl)cc1,21.8
CCCc1cc(NCCCO)n2c(nc3ccccc32)c1C#N,15.9
COc1ccc(CCNC(=O)CSc2nc(O)c(C(C)C)c(=O)[nH]2)cc1OC,10.5
CCN(C(=O)COC(=O)c1ccc(OC)c(S(=O)(=O)N2CCCc3ccccc32)c1)C1CCS(=O)(=O)C1 (configuration not stated),10.2
Cc1ccoc1C(=O)N1CCCCC1C(=O)O (configuration not stated),18.5
CC(Oc1ncnc2ccccc12)C(=O)Nc1cccc(S(=O)(=O)N2CCOCC2)c1 (configuration not stated),12.6
COc1ccc(OC)c(-n2c(=S)[nH]c3c(sc(=S)n3-c3ccccc3)c2=O)c1,10.1
Cc1cc(/C=C2/NC(=O)NC2=O)c(C)n1-c1ccncc1,15.8
COc1ccc(C(=O)NCCSc2ccccc2)cc1OC,0.6
CC(C)CNc1nc(NC(C)(C)C)nc(Oc2ccc(=O)[nH]n2)n1,5.1
CC(C)OC(=O)Nc1ccc(-c2ccc(NC(=O)OC(C)C)cc2Cl)c(Cl)c1,18.0
CN1CC(=O)N(CC(=O)N2CCC(Cc3ccccc3)CC2)C1=O,4.2
Cc1cccc(-c2nc(C)cc(=O)[nH]2)c1,16.9
O=C(CSc1nncn1-c1ccccc1)Nc1cccc(S(=O)(=O)N2CCCCC2)c1,7.3
CCC(=O)Nc1cccc(SC)c1,11.9
CCCC1=NN(C(=O)Cc2ccc([N+](=O)[O-])cc2)C(O)(C(F)(F)F)C1 (configuration not stated),-1.9
Cc1ccnc(SCc2cc(=O)c(OC(=O)c3ccc(S(=O)(=O)N4CCCC4)cc3)co2)n1,15.4
CC(Cc1ccccc1)C(=O)NCc1nc2ccccc2s1 (configuration not stated),1.1
COc1ccc(-c2csc(-n3ncc(-c4ccccn4)c3N)n2)cc1,18.1
Fc1ccc(NC(=S)N2CCN(c3ncccn3)CC2)cc1,6.4
Cc1cccc(C)c1NC(=O)COC(=O)C1CC(=O)N(Cc2ccccc2)C1 (configuration not stated),7.8
O=C(CSc1nc2ccccc2[nH]1)N1c2ccccc2Sc2ccccc21,18.6
O=C(/C=C/c1cccs1)N1CCOCC1,-4.5
O=C(Cc1cccc(Cl)c1)Nc1ccc(Br)cc1,6.8
CC(=O)CCC1C2C(O)C(C(C)C)C(OC(=O)/C=C/c3ccccc3)CC12C (configuration not stated),13.2
CCOC(=O)N/N=C/c1c(F)c(F)c(F)c(F)c1F,8.9
Cc1ccc(C(=O)N2CCN(C(=O)c3ccccc3)C2c2ccc(N(C)C)cc2)cc1 (configuration not stated),-11.3
CCN(CC)CCNc1cc(C)nc2c1C(=O)C(=O)C=C2N1CCCCC1,22.4
S=c1[nH]c(-c2ccccc2)cn1/N=C/c1cccc2ccccc12,8.5
CCC(C(=O)Nc1ccsc1C(=O)OC)c1ccccc1 (configuration not stated),14.1
C#CCOCCOCCOCCNc1nc(N2CCN(C(=O)[C@H]([C@@H](C)O)n3cc(CCCCN)nn3)CC2)nc(N2CCN(C(=O)[C@H]([C@@H](C)CC)n3cc(CCCN=C(N)N)nn3)CC2)n1,16.2
Cc1ccc(CN2CCN(Cc3cccc(OCCO)c3)CC2CCO)o1 (configuration not stated),12.0
O=C(O)CCCSc1nccn1-c1ccccc1,14.3
CC1CC1C(=O)Nc1nc(-c2ccc(Cl)s2)cs1 (configuration not stated),16.0
O=C(Nc1nnc(SCc2c(Cl)cccc2Cl)s1)c1cccc([N+](=O)[O-])c1,14.5
O=C(N/N=C/c1cc2c(cc1Br)OCO2)C1COc2ccccc2O1 (configuration not stated),-8.5
CCOC(=O)CN1C(=N)N(c2nc(NC(C)C)nc(NC(C)C)n2)CC1=O,15.2
Cc1ccccc1-n1c(O)cc(=O)[nH]c1=S,-5.5
COCCSc1ccccc1C(=O)NCCc1ccccc1,6.7
O=S(=O)(NCc1cccnc1)c1ccc(Cl)c(Cl)c1,12.0
O=C(CCn1c(=O)sc2ccccc21)NC1=NCCS1,14.9
CC(C)(C)C1CCc2c(sc3nc(SCC(=O)O)nc(N)c23)C1 (configuration not stated),14.9
COC(=O)NNC(=O)C12CC3CC(CC(C3)C1)C2,15.4

Next part.
SMILES,Calb biofilm kill
CCN(c1ccccc1)S(=O)(=O)c1cc(NC(=O)Nc2ccccc2C#N)ccc1Cl,6.8
O=C(Cn1nnc(-c2ccccc2)n1)N/N=C/c1cccc([N+](=O)[O-])c1O,9.5
O=C(CSc1ccc(-c2cccs2)nn1)NCc1ccccc1Cl,11.0
CN(CC/C=C1/c2ccccc2CSc2ccccc21)CCCO,12.0
Cc1cnccc1CN(C)Cc1nc(Cc2ccccc2Cl)no1,8.2
CCc1sc(N(C(=O)Cc2ccccc2)c2ccccc2F)nc1-c1ccc(C)cc1,5.4
O=C(O)c1ccccc1C(=O)NC1CCCCNC1=O (configuration not stated),19.9
COc1ccc(OC)c(S(=O)(=O)N2CCC(C(=O)Nc3ccccc3)CC2)c1,-8.1
CCn1cc(/C=C/C(=O)Nc2ccc(C)cc2Br)cn1,6.3
CCN=C1NN=C(c2c[nH]c3ccccc23)CS1,0.8
CC(C)Oc1ccccc1/C=N/Nc1ccccc1[N+](=O)[O-],0.8
Cc1ccc(NC2=NC3(CCCC3)N=C(N)N2)c(C)c1,19.5
COC(=O)CC1C(=O)NCCN1C(=S)Nc1cccc(C)c1 (configuration not stated),18.3
COC(=O)c1ccccc1Sc1ncnc2onc(C)c12,7.5
Cc1ccc(S(=O)(=O)N(C)c2ccc(C(=O)N3CCc4ccccc4C3)cc2)cc1,8.9
C/C=C/c1ccc(OCCCCOc2ccccc2F)c(OC)c1,23.1
COc1cc(CNC(C)(C)C)ccc1OCC(=O)NC(C)(C)C,18.7
COc1ccc(C(=O)CCc2nc3ccccc3s2)cc1,14.8
O=C(Cc1ccccc1)N/N=C/c1cccc([N+](=O)[O-])c1,2.5
O=C(O)C1CCCCC1C(=O)NCc1ccncc1 (configuration not stated),10.6
Cc1ccccc1C(=O)NC1CCSC1=O (configuration not stated),15.1
CC(C)c1cccc(C(C)C)c1NC(=O)CCl,16.4
O=C(CCc1nc2ccccc2c(=O)[nH]1)OCC(=O)c1ccc(C2CCCCC2)cc1,6.9
CCOC(=O)C1=C(C)n2c(s/c(=C3\C(=O)Nc4ccccc43)c2=O)=NC1c1ccc(OC)cc1 (configuration not stated),13.3
COCCCN(C(=S)Nc1cc(Cl)cc(Cl)c1)C(C)c1ccncc1 (configuration not stated),9.4
Cc1cccc(C)c1NC(=O)NC1(C(=O)N2CCOCC2)CCCCC1,2.0
COc1ccc(CCNC(=O)COc2cc(=O)n(C)c3ccccc23)cc1OC,19.0
NS(=O)(=O)c1cc(C(=O)OCC(=O)c2ccccc2)c(Cl)cc1Cl,1.1
O=C(NC1=NCCS1)c1cccc(N2C(=O)c3ccccc3C2=O)c1,17.5
COC(=O)c1ccc(COc2ccccc2/C=C(\C#N)C(=O)NC(C)C)cc1,-4.2
O=C(Cn1nc2ccccc2n1)N/N=C/c1cc(Cl)cc([N+](=O)[O-])c1O,13.8
CCc1ccc(CCC(=O)Nc2ncc(Cc3ccccc3Cl)s2)o1,-0.7
O=C(COC(=O)c1c(F)cccc1F)c1ccc[nH]1,12.7
NC(=O)[C@@H]1CC2(CC(c3cccc(NC(=O)COc4ccc(Cl)cc4)c3)=NO2)CN1C(=O)c1ccccc1 (some centres not stated),11.9
CN(c1ccccc1)c1nc(N)c(C#N)c(CC#N)c1C#N,23.9
O=C(Cn1c(C(F)(F)F)nc2ccccc21)Nc1ccccc1C(=O)O,9.6
COc1cc(CCC(=O)OCC(=O)Nc2ccccc2C(C)C)cc(OC)c1OC,-3.2
CCOC(=O)CNC(=O)CSc1ccc2nnc(-c3ccc(F)cc3)n2n1,10.8
COc1ccc(CC(=O)NNC(=O)CSc2ccc(C)cc2)cc1,-12.7
COc1ccc(C(=O)Nc2cc(C(F)(F)F)ccc2-n2cnc3ccccc32)cc1,8.7
CCN1CCN(C(=O)CN(C)S(=O)(=O)c2cc(C)ccc2OC)CC1,-1.8
CC(=O)Nc1cccc(Oc2ncnc3scc(-c4ccc(C(C)C)cc4)c23)c1,3.7
COc1cc(/C=N/NC(N)=S)cc(Br)c1OCc1ccccc1F,10.4
Cc1cc(C(=O)CN2C(=O)c3ccccc3C2=O)c(C)n1Cc1cccs1,8.1
C[C@@H]1CN(Cc2nc(Cc3ccccc3F)no2)C[C@H](C)O1,20.6
CCOC(=O)/C(C#N)=C/c1cccc(C)c1,28.5
Cc1cc(-c2n[nH]c(=S)n2/N=C/C(Cl)=C/c2ccccc2)n[nH]1,10.0
O=C(Nc1ccc(NC(=O)c2ccco2)nc1)c1ccco1,14.6
COC(=O)C1CC(=O)N(Cc2ccccc2)C1 (configuration not stated),8.4
COc1ccc(-n2ccnc2CN2CCCC(CO)(Cc3cccc(OC)c3)C2)cc1 (configuration not stated),6.3

Other records follow:
SMILES,Calb biofilm kill
CC(C)CN(C(=O)COC(=O)CNC(=O)c1ccccc1F)C1CCS(=O)(=O)C1 (configuration not stated),15.6
O=C(NC1=NCCS1)c1sc2cc(Cl)cc(Cl)c2c1Cl,14.7
COCCNC(=O)C1CC2Cn3c(nc4cc(Cl)c(Cl)cc43)C2N1C (configuration not stated),3.1
O=C(CSc1nnc(-c2cccnc2)n1CCN1CCCCC1)Nc1cccc(Cl)c1,12.2
Nc1ccc(C(=O)OCc2nc3ccccc3s2)cc1,9.2
